# PMP22 txn – Cell-based coincidence reporter assay to measure PMP22 gene transcription in S16 Pmp22-F2sN cells - Primary screen; S16 Pmp22-F2sN Schwann cells (luciferase reporters placed in the Pmp22 gene), FLuc/NLuc coincidence luminescence, 24 h; Potency, µM (titrated, usually from 57.5 µM), without a hit: at the highest dose activity change, negative = inhibition, most hits filed as inhibitors; actives 2% (n = 43,000); active = clear falling dose curves in both reporters; inconclusive = both reporters move, but less clearly or upward; inactive = either reporter flat; the % is the NLuc reporter signal; note: % is set by controls: 0 for no effect and ±100 for the full control effect; some results filed as inactive show a strong effect at the top dose
#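 Reporter cells (S16 Pmp22-F2sN, 500–1,000 per well) exposed to compounds for 24 h, 37C, 5% CO2; lysis with FLuc read after 10 min, then Stop&Glo and NLuc read after 10 min.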
# HTT prom inh – Primary qHTS for Identification of Small Molecule Inhibitors of Huntingtin Promoter Activity. Potency, µM (series often up to 57.5 µM), for the others: at the highest dose activity change, negative = inhibition, actives largely listed as inhibitors. AID 1508623, 2021. HEK293 HTT promoter firefly luciferase reporter (activity 0% = vehicle and -100% = no light), 24 h. actives 0.93% (n = 48,000); active = well fitted inhibition curve with a large enough effect; inconclusive = small, poorly fitted or top-dose-only effect; inactive = no such curve, though single readings can be large or run the other way; note: nearly all actives have a fitted effect of over 50% in size
#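 Firefly luciferase readout (Dual-Glo, 10 min RT) after 24 h, 37 °C compound exposure (final up to 57.5 uM) of HEK293 reporter cells cultured 24 h beforehand; PTC124 at 50 uM final as control inhibitor; activity scaled vehicle 0%, zero RLU -100%.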
# Starred values were filed as active, the others as inactive; ? = inconclusive; . = no result given; [ ] = dose if it differs, or a comment. Potency is the fitted concentration of half-maximal effect.
Molecule,PMP22 txn,HTT prom inh
CCS(=O)(=O)NCC(c1ccco1)N1CCN(c2ccccc2)CC1 (stereo unspecified),0%,-2%
COc1ccc(CNC(=O)c2cc3c(=O)[nH]c4ccccc4c3s2)cc1,-10%,-6%
CSc1cccc(NC(=O)CC(c2cccs2)N2Cc3ccccc3C2=O)c1 (stereo unspecified),?,-28%
O=C(NCCS(=O)(=O)N1CCN(c2ccc(F)cc2)CC1)c1ccccc1Br,-12%,?
CC(=O)c1cccc(NC(=O)CSc2nc3c(c(=O)[nH]2)CCC3)c1,-1%,-13%
C=C(C)Cn1c(SCC(=O)c2ccc(Br)cc2)nc2sc3c(c2c1=O)CCCC3,-13%,-13%
CCCNC(=O)[C@H]1O[C@H]1C(=O)N[C@H](C(=O)N1CCC[C@@H]1C(=O)OC)C(C)CC (stereo partly specified),.,-10%
COc1ccc(-n2nc3cc(C)c(NC(=O)c4ccc(-c5ccc(Cl)cc5)o4)cc3n2)cc1,-10%,4%
Cc1cccc(OCC(=O)Nc2ccc3c(c2)nc(CCNC(=O)c2ccco2)n3C)c1,-6%,-4%
CCOc1cc(C(=O)NCc2nc(-c3cccc(C)c3)no2)cc(OCC)c1OCC,-23%,-2%
O=C1c2cccc(O)c2C(=O)c2c(O)cccc21,.,-5%
O=C(CSc1nc(Nc2ccccc2)c2ccccc2n1)c1ccc(Cl)cc1,-33%,-17%
COc1cc(OC)cc(-c2nc3nc(C)c(CCC(=O)Nc4ccc(C)cc4)c(C)n3n2)c1,2%,4%
Cc1ccc(-c2noc(-c3ccc(N4CCN(C)CC4)c([N+](=O)[O-])c3)n2)cc1,1%,-20%
COc1cccc(C(=O)Nc2ccc3oc(-c4ccc5ccccc5c4)nc3c2)c1,-26%,20%
CCOC(=O)c1cnc2c(ccc3ccccc32)c1Nc1cccc(OC)c1,?,-32%[11.5 µM]
COc1ccc(C(=O)Nc2ccc(-c3nc4ncccc4o3)cc2C)cc1Br,?,14%
COc1ccc(C(=O)N2CCC(C(=O)Nc3ccc(Cl)cc3)CC2)cc1,9%,-30%
COc1ccc(S(=O)(=O)N2Cc3ccccc3CC2C(=O)Nc2cc(Cl)ccc2Cl)cc1 (stereo unspecified),3%,?
Cc1ccc(N2C(=O)[C@@H]3CSC(c4ccc(Cl)cc4)N3C2=O)cc1 (stereo partly specified),-13%,-17%

# Rewritten as labelled records: part of the list above.
COc1cc(OC)cc(-c2nc3nc(C)c(CCC(=O)Nc4ccc(C)cc4)c(C)n3n2)c1
  PMP22 txn = 2% | HTT prom inh = 4%

Cc1ccc(-c2noc(-c3ccc(N4CCN(C)CC4)c([N+](=O)[O-])c3)n2)cc1
  PMP22 txn = 1% | HTT prom inh = -20%

COc1cccc(C(=O)Nc2ccc3oc(-c4ccc5ccccc5c4)nc3c2)c1
  PMP22 txn = -26% | HTT prom inh = 20%

CCOC(=O)c1cnc2c(ccc3ccccc32)c1Nc1cccc(OC)c1
  PMP22 txn = ? | HTT prom inh = -32%[11.5 µM]

# Next section.
Molecule,PMP22 txn,HTT prom inh
CCc1ccc2nc(N3CCN(C(=O)c4ccco4)CC3)sc2c1,?,3%
Fc1ccc(Nc2c(-c3c[nH]c4ccccc34)nc3ccccn23)cc1,-1%,17%
CCC1CN(C(=O)N2CCC(C(=O)NCCC3=CCCCC3)CC2)c2ccccc2O1 (stereo unspecified),-29%,13%
Cc1c(Cl)cccc1-c1ccc(C(=O)Nc2ccc3oc(-c4cccnc4)nc3c2)o1,-26%,?
CO[C@]12C[C@@H](COC(=O)c3cncc(Br)c3)CN(C)[C@@H]1Cc1cn(C)c3cccc2c13,.,-1%
CCOc1ccc(NC(=O)c2cc(S(=O)(=O)N3CCN(c4ccccc4F)CC3)ccc2F)cc1,?,?
COc1ccc(Nc2cc(C(=O)NCCCN3CCN(c4ccccc4F)CC3)c3ccccc3n2)c(OC)c1,?,?
Cc1ccc(Cn2c(=O)n(CC3CCC(C(=O)N4CCOCC4)CC3)c(=O)c3sccc32)cc1 (stereo unspecified),9%,6%
O=C(Nc1ccc(-c2nc3cc(NC(=O)c4ccccc4Cl)ccc3o2)cc1)c1ccccc1Cl,?,?
Cn1cc(-c2cc3n(n2)CCC(=O)N3CCCC(=O)Nc2ccc(F)cc2F)c2ccccc21,2%,0%
CCN(CCCNC(=O)c1nn(-c2ccc(OC)cc2)c(=O)c2c1c1ccccc1n2C)c1cccc(C)c1,?,-10%
Cc1cccc(-c2nc3c4ccccc4nc(N4CCN(c5ccccc5F)CC4)n3n2)c1,0%,0%
CN(C)c1ccc(NC(=O)Cn2c(SCc3ccc(F)cc3)nc3cccnc32)cc1,-33%,-20%
COc1cccc(C(=O)N2CCCCC2CCN2CCCCC2)c1 (stereo unspecified),-5%,-7%
CCOc1ccc(-c2c(C)nn3c(C)c(C(=O)NCc4cccc(OC)c4)cnc23)cc1OCC,-18%,-34%
O=C(O)Cn1c(=O)n(Cc2ccc(Br)cc2F)c(=O)c2ccc(Cl)cc21,.,-2%
Cc1cc(C)n2nc(CNC(=O)c3ccc(Cl)cc3)nc2n1,-3%,7%
Cc1cc(NC(=O)C2CCC(CNS(=O)(=O)c3ccc(Br)s3)CC2)ccc1Br (stereo unspecified),?,-3%
Cc1cc(Nc2cc(Cl)ccc2C)n2nc(Cc3ccccc3)nc2n1,?,-11%
Cc1cccc(NC(=O)c2ccc3snnc3c2)c1,1%,48%[activator]
COCCCn1c(-c2ccc(S(=O)(=O)N3CCOCC3)cc2)csc1=Nc1ccccc1,-18%,?
O=[N+]([O-])c1cc(-c2nc(-c3ccccc3)no2)ccc1NCCc1ccccc1,6%,-16%
COc1ccc(OC)c(CCNc2nc3cc(OC)c(OC)cc3c3nc(-c4cccnc4)nn23)c1,-9%,-1%
COc1ccc(N2CCN(C(=O)CCc3c(C)nc4cc(-c5ccc(Cl)cc5)nn4c3C)CC2)cc1,-17%,0.32µM*
Cc1ccc(NC(=O)CSc2cn(CC(=O)N3CCCC3)c3ccccc23)cc1Cl,-25%,?
COc1ccc(NC(=O)c2oc3ccccc3c2NC(=O)Cc2coc3ccc(C)cc23)cc1,-11%,8%
Cc1cccc2c1-c1sc(C(=O)N(C)c3cccc(Cl)c3)cc1CO2,-33%,-25%
O=C(CSc1nc2ccccc2n1Cc1ccc(F)cc1)N1CCN(c2ccc(F)cc2)CC1,6%,0%
Cc1ccc(NC(=O)CN2C(=O)C(c3ccc(F)cc3)=NC23CCCCC3)c(C)c1,?,?
Cn1c(=O)n(C)c2cc(N3CCOCC3)c(NC(=O)c3ccccc3Br)cc21,?,-4%
Cc1cc(Br)ccc1NC(=O)c1sc2ncn(Cc3ccccc3Cl)c(=O)c2c1C,3%,5%
COc1ccc(C(CNC(=O)COc2ccc(Cl)c(C)c2)N2CCOCC2)cc1 (stereo unspecified),-29%,-8%
Cc1ccc(-n2nc(C)c3c(C)c(CCC(=O)NCc4cccc(Cl)c4)c(C)nc32)cc1C,?,-22%
O=C(c1[nH]c2ccccc2c1Sc1ccc(Cl)cc1)N1CCCCC1,?,-29%
COc1ccc(CCNC(=O)CCCn2nc(C)c3sc4ccccc4c3c2=O)c(OC)c1,-22%,-10%
CCc1nn(CC(=O)N2CCN(c3cccc(OC)c3)CC2)c(=O)c2cc3occc3n12,-22%,-7%
CCN(CC)S(=O)(=O)c1cccc(C(=O)Nc2sc3c(c2C#N)CCC(C)C3)c1 (stereo unspecified),-51%,?
COc1ccc(-c2cn3c(n2)sc2cc(C(=O)NCCCN4CCN(C)CC4)ccc23)cc1,?,-24%
COc1ccc(NC(=O)C(NS(=O)(=O)c2cccc3nsnc23)c2ccccc2)cc1 (stereo unspecified),86%,-14%
Cc1ccc(Cl)cc1NC(c1ccc(F)cc1)c1nnc(-c2ccccc2)o1 (stereo unspecified),-44%,-33%
CC(=O)Nc1ccc(S(=O)(=O)NC2(C(F)(F)F)NC(=O)N(c3ccc(Cl)cc3)C2=O)cc1 (stereo unspecified),-1%,-34%[11.5 µM]
COc1cc2cc(CNc3ccccc3)c(=O)n(CC(=O)Nc3ccc(C)c(Cl)c3)c2cc1OC,?,-23%
COc1ccc(C(=O)CSc2c(C(C)C)cnc3c2c(=O)n(C)c(=O)n3C)cc1,-35%,?
CCOC(=O)c1ccc(NC(=O)c2cnn3c(=O)c4c(n(CC)c23)CCN(Cc2ccc(OC)cc2)C4)cc1,?,-21%
CC(C)c1ccc2oc(-c3ccc(NC(=O)c4cccc(Br)c4)cc3)nc2c1,-4%,?
CCOc1ccc(NC(=O)C2(c3cccs3)CCOCC2)cc1,-4%,-3%
Cc1ccc(Nc2ncnc3c2cnn3-c2ccc(C)cc2)cc1,-1%,15%
CCn1cc(C(=O)NCCc2ccc(Cl)cc2)c(=O)c2cc(S(=O)(=O)N3CCC(C)CC3)ccc21,?,1%
CC(NCCC(c1ccccc1)c1ccccc1)c1ccccc1 (stereo unspecified),.,-22%
COc1cc(Cl)c(C)cc1Nc1c2c(nc3ccccc13)CCC2,?,?
CC(C)CC(C(=O)NCC1CCN(Cc2ccc(F)cc2)CC1)N1Cc2ccccc2C1=O (stereo unspecified),-9%,-4%
Cc1cccc(NC(=O)c2oc3c(c2C)-c2[nH]ncc2CC3)c1C,?,37%[activator]
CC(C)COc1ccc(C(=O)NCC2OCCc3ccccc32)cc1 (stereo unspecified),-8%,0%
COc1ccc(-c2cn3nc(N4CCC(C(=O)NCc5cccc(Cl)c5)CC4)sc3n2)cc1,-20%,19%
Cc1cccc(N2CCN(S(=O)(=O)c3ccc(-c4cnc(C5CC5)o4)cc3)CC2)c1C,?,?
CCCCCS(=O)(=O)c1oc(-c2cccs2)nc1S(=O)(=O)c1ccc(C)cc1,13µM*,-3%
CCc1ccc(NC(=O)Nc2cn(C)c(=O)c3ccccc23)cc1,?,?
COc1ccc(-c2cn3cccnc3n2)cc1NC(=O)c1ccccc1C(F)(F)F,-8%,-1%
Cc1ccc(-n2nc3c(N4CCC(C(=O)N5CCC(C)CC5)CC4)nnc(C)c3c2C)cc1,-24%,-17%
Cc1cc(CC(=O)O)c(C)n1-c1ccc(Cl)cc1,.,-1%

# Record cards (already shown). Order of screens: PMP22 txn, HTT prom inh
# Cc1cccc(NC(=O)c2oc3c(c2C)-c2[nH]ncc2CC3)c1C as listed: ?, 37%[activator]
# CC(NCCC(c1ccccc1)c1ccccc1)c1ccccc1 (stereo unspecified) as listed: ., -22%
# Cc1cccc(N2CCN(S(=O)(=O)c3ccc(-c4cnc(C5CC5)o4)cc3)CC2)c1C as listed: ?, ?
# COc1ccc(-c2cn3cccnc3n2)cc1NC(=O)c1ccccc1C(F)(F)F as listed: -8%, -1%
# Cc1cc(CC(=O)O)c(C)n1-c1ccc(Cl)cc1 as listed: ., -1%

# Next part.
Molecule,PMP22 txn,HTT prom inh
CCOc1ccc(NCc2cccn2-c2nnc(N3CCC(C(=O)NCCc4ccc(OC)c(OC)c4)CC3)s2)cc1,?,?
Cc1ccc(-n2nc3c(=O)n(CC(=O)NCCC(C)C)nc(C)c3c2C)cc1,-1%,-1%
COc1ccc(-n2cc(-c3ccccc3)c3c(NCCc4ccc(OC)c(OC)c4)ncnc32)cc1,?,?
COc1cccc2c1cc1c(=O)n(CC(=O)NC3CC3)nc(C)n12,-29%,3%
CC(CNC(=O)c1ccc2c(c1)nc1n2CCOC1)c1ccccc1 (stereo unspecified),5%,65%[activator]
COc1ccccc1CNc1nc(-c2ccco2)nn1S(C)(=O)=O,2%,26%
O=C(NC1CCCC1)c1ccc2c(=O)n(Cc3ccccc3)c(SCc3ccccc3F)nc2c1,-9%,0%
COc1ccc2cc3cc(C(=O)N4CCN(c5cccc(C(F)(F)F)c5)CC4)sc3nc2c1,-30%,-14%
CCc1cccc(NC(=O)CCc2nc3cccnc3n2-c2ccccc2)c1,-20%,-15%
CCCCNC(=O)c1cnn2c(C)c(Cc3c(C)cc(C)cc3C)c(C)nc12,?,?
O=C(Cc1ccc(Cl)cc1)Nc1ccc2oc(-c3ccccc3F)nc2c1,?,?
Cc1ccc(-c2noc(-c3ccc(NCc4ccco4)c([N+](=O)[O-])c3)n2)cc1,-10%,11%
COc1ccc(Cn2c(C(=O)O)c(CNCCc3cc(OC)ccc3OC)c3ccc(C)cc32)cc1,?,?
COc1ccc(-c2nc(C(=O)Nc3cccc(C(C)=O)c3)nn2-c2ccc(Cl)cc2)cc1,-98%,-4%
CCCCNS(=O)(=O)c1ccc2nc(-c3cccnc3)cc(C(=O)NC(C)C)c2c1,?,-32%
Cc1cccc(-c2noc(-c3cccnc3NCc3ccco3)n2)c1,?,64%[activator]
